Hsc70: Hsc70 inhibitors, probe displacement, primary screen, biochemical, fluorescence polarization (AID 568); displacement, % at 20 µM; hits with a dose series show IC50 in µM; Hsc70 fluorescence polarization, probe displacement; higher % means a stronger effect; strong numbers were not always called active; 83,000 tested, under 10 active; Heat shock cognate 71 kDa protein (Homo sapiens);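 active = displacement above 50% without optical interference and an IC50 on retest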;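 also: ATPase domain with a fluorescein-tagged ATP probe; 0% = vehicle and 100% = excess ADP; read after one hour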
MT1-MMP reporter: inhibitors of MT1-MMP promoter transcription, cell-based, luciferase reporter, luminescence (AID 618). MT1-MMP promoter luciferase reporter cells, luminescence. calls from a first round at 10 µM; hits with a dose series show EC50 in µM. hit rate 0.62% among 87,000;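 active = over half of the reporter light lost at 10 µM or EC50 under 50 µM; inactive = the rest and hits that failed the dose series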;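 also: actives suppress MT1-MMP promoter-driven transcription so potencies describe inhibitors; HT1080 fibrosarcoma cells; overnight exposure; toxic or luciferase-blocking compounds were not removed from the actives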
WNV protease inh: inhibitors of WNV NS2B-NS3 protease, primary screen, biochemical, fluorogenic substrate; z-score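 (tested at a level between 10 and 100 µM)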; Genome polyprotein (West Nile virus), P06935; hit rate 0.18% among 65,000; fluorogenic substrate Ex360/Em465; stronger effect = lower value;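 active = z-score at -3 or under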;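 also: score is relative to mean and spread of the compound wells of a plate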
Target sequence (P06935 1371-1501 limits assumed): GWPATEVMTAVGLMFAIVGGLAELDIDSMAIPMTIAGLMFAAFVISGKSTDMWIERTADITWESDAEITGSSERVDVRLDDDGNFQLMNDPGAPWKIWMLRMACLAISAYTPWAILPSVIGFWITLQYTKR
Target sequence (P06935 1502-1679 limits assumed): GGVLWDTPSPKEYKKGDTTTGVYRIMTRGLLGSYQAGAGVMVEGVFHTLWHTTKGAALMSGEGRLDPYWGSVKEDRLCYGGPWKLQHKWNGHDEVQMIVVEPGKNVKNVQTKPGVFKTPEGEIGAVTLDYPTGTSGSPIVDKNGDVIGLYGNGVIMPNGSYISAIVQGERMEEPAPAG
* = called active by the depositor; i = inactive; x = not tested or not shown.

Each structure is followed by: Hsc70	MT1-MMP reporter	WNV protease inh
CCOC(=O)c1ccccc1NS(=O)(=O)c1ccc(OCC)cc1
  -6.4%	i	x
O=C(NC1CCCc2ccccc21)C1CCCN(S(=O)(=O)c2cnc[nH]2)C1 (stereo not given)
  0.1%	i	-0.25
O=C(Cn1nc(-c2ccc(Cl)cc2)ccc1=O)NCCN1CCOCC1
  -0.3%	i	0.54
CSc1ccc(C(C(C(=O)c2cccs2)N2CCOCC2)N2CCOCC2)cc1 (stereo not given)
  -12.8%	i	-0.66
O=C(NCc1ccco1)C1CC(=O)N(CCc2ccccc2)C1 (stereo not given)
  -5.3%	i	-0.07
CN(C)/C=C1/Nc2ccccc2C1=O
  2.1%	i	0.06
Cc1occc1-c1nnc(SCC(=O)Nc2ccccc2N2CCCCC2)n1C
  -8.8%	i	-0.28
Cc1cc2ccccc2c(=O)n1CC(=O)NCC1COc2ccccc2O1 (stereo not given)
  10.5%	i	-0.96
CCC(=O)c1ccc(OC(=O)c2cccs2)cc1
  0.7%	i	x
Cc1ccc2nc3c(cc(C(=O)NCC4CCCO4)n3C)c(=O)n2c1 (stereo not given)
  -2.0%	i	1.89
Cc1ccccc1-n1c(C)cc(/C=C2\NC(=O)NC2=O)c1C
  0.4%	i	x
Cc1cc(O)cc(O)c1C(=O)Cc1cnn(-c2ccccc2)c1
  5.5%	i	x
Cc1occc1C(=O)Nc1c(F)c(F)c(F)c(F)c1F
  -6.4%	i	x
O=C(Nc1nnc(/N=C/c2ccco2)s1)c1ccc(F)cc1
  -1.9%	i	0.8
O=C(CSc1ccc2nnc(-c3ccc(Cl)cc3)n2n1)N1CCCC1
  5.4%	i	-0.05
Cc1c(C(=O)NCc2ccccc2Cl)oc2c1C(=O)CCC2
  -0.1%	i	-0.51
CC(=O)OCC(=O)[C@@]1(O)CC[C@H]2[C@@H]3CCC4=CC(=O)C=C[C@]4(C)[C@@]3(Cl)[C@@H](Cl)C[C@@]21C
  3.0%	i	0.05
O=C(NCCCN1CCOCC1)c1ccc(CS(=O)(=O)c2cccc(C(F)(F)F)c2)o1
  0.9%	i	-1.8
Cc1ccc(S(=O)(=O)NCC2CCC(C(=O)NCc3ccc4c(c3)OCO4)CC2)cc1 (stereo not given)
  -4.1%	i	x
Cc1nn(Cc2ccccc2)c(C)c1C(=O)OCC(=O)c1cc(C)n(C2CC2)c1C
  -4.7%	i	1.61

5 structures from above, sorted by length of the SMILES, rising.
Each structure is followed by: Hsc70	MT1-MMP reporter	WNV protease inh
CN(C)/C=C1/Nc2ccccc2C1=O
  2.1%	i	0.06
O=C(Nc1nnc(/N=C/c2ccco2)s1)c1ccc(F)cc1
  -1.9%	i	0.8
O=C(CSc1ccc2nnc(-c3ccc(Cl)cc3)n2n1)N1CCCC1
  5.4%	i	-0.05
Cc1ccc2nc3c(cc(C(=O)NCC4CCCO4)n3C)c(=O)n2c1 (stereo not given)
  -2.0%	i	1.89
O=C(NCCCN1CCOCC1)c1ccc(CS(=O)(=O)c2cccc(C(F)(F)F)c2)o1
  0.9%	i	-1.8

Single values from the results shown:
`Cc1nn(Cc2ccccc2)c(C)c1C(=O)OCC(=O)c1cc(C)n(C2CC2)c1C` – Hsc70: -4.7%
`O=C(Nc1nnc(/N=C/c2ccco2)s1)c1ccc(F)cc1` – Hsc70: -1.9%

Other entries follow.
Each structure is followed by: Hsc70	MT1-MMP reporter	WNV protease inh
Nc1cc(N)c(OCC(F)(F)F)cc1OCC(F)(F)F
  1.8%	i	-0.38
CS(=O)(=O)Nc1cccc(C(=O)CC2(O)C(=O)Nc3ccc(Br)cc32)c1 (stereo not given)
  -0.9%	i	1.06
CCOc1ccccc1C(=O)Nc1nnc(CC)s1
  -1.9%	i	-0.56
CCOC(=O)c1oc2nc(CC(C)C)c3c(c2c1N)CCC3
  -0.3%	i	x
Cc1ccc(N2CCN(C(=O)c3ccccc3Br)CC2)c(C)c1
  -6.0%	i	-0.11
Cn1c(=O)c2c(nc(NCc3ccco3)n2Cc2ccc(Cl)cc2Cl)n(C)c1=O
  -3.5%	i	-0.36
O=C(CN1CCOCC1)Nc1ccc(S(=O)(=O)NC2CCCCC2)cc1
  7.7%	i	-0.75
COc1ccc(C2OC34CCCCC3C(C#N)(C#N)C2(C#N)C(=N)O4)cc1 (stereo not given)
  -0.4%	i	x
Cn1c(=O)[nH]c(=O)c2c1nc(N1CCOCC1)n2CCSc1nc2ccccc2[nH]1
  -2.2%	i	x
c1ccc(-c2nc(-c3ccncc3)no2)cc1
  1.8%	i	-0.05
O=C(O)CCC(=O)CCC(=O)c1ccccc1
  -2.3%	i	-0.47
CCN1C=CC(=C2C(=O)c3ccccc3C2=O)C=C1
  3.9%	0.2µM*	-0.46
Cc1ccc(S(=O)(=O)N2CCN(S(=O)(=O)c3ccccc3)C2c2ccc(N(C)C)cc2)cc1 (stereo not given)
  3.5%	i	x
O=C(NCc1ccc(N2CCCC2=O)cc1)Nc1cccc2ccccc12
  -1.1%	i	x
Cc1ccc(-c2nnn(CC(=O)N(CC3CCCO3)C(C(=O)NC(C)(C)C)c3ccc(F)cc3)n2)o1 (stereo not given)
  3.7%	i	0.3
COc1ccc(Cl)cc1NC(=O)c1ccoc1C
  -6.7%	i	-1.44
CCOC(=O)CSc1nc(N2CCOCC2)c2c(c1C#N)CC(C)(C)N(C)C2
  -3.1%	i	-1.1
COC(=O)Cn1cccc1C(=O)c1ccccc1
  10.6%	i	x
CCn1c(SCC(=O)NCc2cccs2)nnc1-c1ccncc1
  6.7%	i	-0.81
Cc1ccc(C)c2[nH]c(=O)c(CCNC(=O)C(C)(C)C)cc12
  3.5%	i	-1.22
COc1ccc2[nH]c(=O)c(CN(Cc3cccs3)S(=O)(=O)c3cccc4nsnc34)cc2c1
  1.7%	i	1.11
O=S1(=O)C=C(N2CCCCC2)c2ccccc21
  -3.2%	i	-0.36
Cc1ccc(NC(=O)CSc2nnc(Cn3cnc4ccccc43)o2)cc1
  -4.7%	i	0.77
Cc1cc(OCC(=O)O)c2cccc(C)c2n1
  2.2%	i	0.52
COc1ccc(S(=O)(=O)Nc2ccccc2C)cc1
  3.4%	i	x
Cc1ccc(C(=O)CC(C(=O)O)n2ccc(C)n2)cc1 (stereo not given)
  2.0%	i	-0.42
CCc1cc(Br)ccc1NC(=O)C1CCCO1 (stereo not given)
  0.1%	i	-0.58
CCOc1ccc(S(=O)(=O)n2nnc3ccccc32)cc1C
  -0.8%	i	0.36
CCOc1ccc2[nH]c(=O)c(CN(C(=O)N3CCOCC3)C3CC3)cc2c1
  -5.3%	i	-0.24
NC(=O)c1ccccc1NC(=O)CN1CCOCC1
  1.1%	i	0.53
CCC(O)CNc1nc(-n2nc(C)cc2C)nc2sc3c(c12)CCCC3 (stereo not given)
  2.1%	i	0.2
CCOC(=O)CC(C(=O)OCC)P(=O)(c1ccccc1)c1ccccc1 (stereo not given)
  1.2%	i	-0.61
COc1ccc2cc(C(=O)OC(C)C)sc(=O)c2c1OC
  1.7%	i	-0.65
COc1ccc(C2(C(=O)N3CCCC3)CCOCC2)cc1OC
  8.5%	i	-0.28
CC1CCN(C(C)C(=O)Nc2ccccc2-c2ccccc2)CC1 (stereo not given)
  4.6%	i	x
O=C1CCCN1CCC1CCN(C(=O)Nc2ccccc2)CC1
  -0.3%	i	1.21
O=C(CSc1ncnc2c1cnn2-c1ccccc1)Nc1ccc2c(c1)OCO2
  0.2%	i	0.43
O=C(NC1CCCCC1)C(c1ccco1)N(Cc1cccs1)C(=O)Cn1nnc2ccccc21 (stereo not given)
  4.1%	i	0.52
CN1CCN(CCCNC(=O)c2cc3c(-c4ccc(Cl)cc4)nn(C)c3s2)CC1
  1.4%	i	0.61
NC(=O)CN1C(=O)C2C3C=CC(C3)C2C1=O (stereo not given)
  -2.7%	i	0.31
CCC(NC(=O)c1ccccc1NC(=O)c1ccco1)C(=O)NC1CCCCC1 (stereo not given)
  -6.9%	i	0.6
Cc1c(=O)n(OCc2ccccn2)c2ccccc2[n+]1[O-]
  -0.9%	i	-0.01
Cc1nnc(N2C(=O)c3cccc4cccc(c34)C2=O)s1
  -1.3%	i	x
Cc1nn(Cc2c(Cl)cccc2Cl)c(C)c1N
  0.6%	i	x
COc1ccc(-c2noc(COc3ccc(C)c(C)c3)n2)cc1OC
  -0.5%	i	-0.91
Cc1cc(C(=O)CN2C(=O)NC(c3ccccc3)(c3ccccc3)C2=O)c(C)n1Cc1ccccc1
  -22.9%	i	x
CCc1ccc(OCC(=O)N(C)CCC#N)c(Br)c1
  -0.9%	i	0.08
COc1cccc(C2CC(c3cccs3)Nc3ncnn32)c1 (stereo not given)
  2.7%	i	1.58
O=C(O)CCc1ccc(-c2ccc(F)cc2)n1NC(=O)c1ccco1
  2.4%	i	-0.14
CCn1c(-c2ccc3[nH]c(C)c(C)c3c2)n[nH]c1=S
  -1.6%	i	-0.16
CC(=O)C1C(=O)CC(C)(O)C(C(C)=O)C1c1ccc(N(C)C)cc1 (stereo not given)
  4.9%	i	2.28
CC(=O)N(Cc1cc(=O)[nH]c2ccccc12)c1ccccc1
  -1.8%	i	-0.27
COc1ccc(OC)c(NC2c3ccccc3C(=O)N2Cc2ccc3c(c2)OCO3)c1 (stereo not given)
  1.0%	i	-0.3
COc1ccccc1CC(=O)Nc1ccc(OC)c(OC)c1
  -2.2%	i	0.56
CCCc1nc2ccccc2c(=O)n1/N=C/c1ccc(O)cc1
  -1.7%	i	0.08
CCOc1ccc(NC(=O)CN(c2ccc(OC)cc2)S(C)(=O)=O)cc1
  3.0%	i	0.39
COC(=O)C1C(=O)c2c([nH]c(C(=O)OC3CCCC3C)c2C)CC1C (stereo not given)
  8.6%	i	-0.43
COc1ccc(S(=O)(=O)N2CCCC(C(=O)Nc3ccc(NC(=O)c4ccccn4)cc3)C2)cc1 (stereo not given)
  -7.2%	i	1.05
Cc1nn(-c2ccccc2)c2sc(C(=O)c3c(N)n(C)c(=O)n(C)c3=O)cc12
  -0.4%	i	-0.83
O=Cc1cn(-c2ccccc2)nc1-c1cc2ccccc2oc1=O
  -5.1%	i	x

Continued.
Each structure is followed by: Hsc70	MT1-MMP reporter	WNV protease inh
O=C(Cn1cnc2scc(-c3ccccc3)c2c1=O)N1CCOCC1
  8.9%	i	-0.08
O=C(CSc1nnnn1C1CCCC1)NCc1ccccc1
  -0.3%	i	x
Cc1cc(OCc2nc(-c3cccnc3)no2)c(C)cc1Br
  2.1%	i	0.95
Cc1ccc(C)c(-n2ccnc2SCC(=O)O)c1
  -0.2%	i	x
CCOc1cc2[nH]c(=S)n(CCCN3CCOCC3)c(=O)c2cc1OCC
  -2.0%	i	-1.91
CC1(C)Cc2c(c(=S)nc(-c3ccccc3)n2CCO)CO1
  3.8%	i	-0.46
CCOc1ccccc1C1CC(=O)NC2=C1C(=O)CCC2 (stereo not given)
  0.5%	i	0.58
COC(=O)CSc1nnc(CNC(=O)Cc2ccccc2)n1-c1ccccc1OC
  1.7%	i	0.5
Cc1cccc(OCCOCCN2CCOCC2)c1C
  -4.8%	i	-0.72
O=C1CC(c2ccc(Cl)c(Cl)c2)CC(O)=C1C=NCCN1CCNCC1 (stereo not given)
  2.3%	i	1
O=C(O)C1C(C(=O)Nc2ccc(Cl)cc2)C2C=CC1C21CC1 (stereo not given)
  0.3%	i	x
Cc1occc1C(=O)N1CCCc2ccccc21
  1.3%	i	-0.33
COc1cc(C(O)c2nc3ccccc3n2C)cc(OC)c1OC (stereo not given)
  -0.2%	i	-0.79
COc1ccc(OC)c2c1sc(=NC(=O)CN1C(=O)CCC1=O)n2C
  -1.5%	i	-2.5
COc1ccc(CN/C(C)=C(/C#N)C(N)=O)cc1OC
  2.7%	i	0.18
NC(CC(=O)O)c1cccc(OCc2ccccc2)c1 (stereo not given)
  -2.9%	i	0.53
COc1ccc(CCNC(=O)CSc2nc3c(c(=O)n(C)c(=O)n3C)n2C)cc1OC
  -0.5%	i	x
CCc1ccc2[nH]c(=O)c(CN(CCCO)C(=O)NCc3ccccc3)cc2c1
  0.8%	i	x
Cc1ccc2c(c1)cc(CN(Cc1ccccc1)C(=O)N(C)C)c1nnnn12
  -1.6%	i	-0.41
Cc1cc(NC(=O)CCC(=O)N(c2ccccc2)C(C(=O)NCC2CCCO2)c2cccnc2)no1 (stereo not given)
  -10.9%	i	0.34
CCOc1ccc(Cn2c(=O)oc3ccc(C)cc32)cc1OC
  -5.6%	i	-0.17
CCc1cccc(NC(=O)CCS(=O)(=O)c2cccc3nonc23)c1
  1.0%	i	0.02
CCCCn1c(=NC(C)=O)c(C#N)cc2c(=O)n3cccc(C)c3nc21
  -0.1%	i	0.18
c1nc(NCCN2CCOCC2)c2sc3nc(N4CCOCC4)c4c(c3c2n1)CCC4
  -0.5%	i	0.3
OCCn1c(SCCOc2ccccc2)nc2ccccc21
  -3.1%	i	x
c1ccc(Cn2ncc3c(NCc4ccco4)ncnc32)cc1
  -1.2%	i	0.26
O=C(CN(Cc1ccccc1F)S(=O)(=O)c1ccc(Cl)cc1)NCCCO
  2.0%	i	2.18

Compound activity deposited in PubChem by several laboratories.
